miR-21 reporter – qHTS Assay for Modulators of miRNAs and/orActivators of miR-21 | Potency, µM (series often up to 38.3 µM), without a hit: at the highest dose reporter change, positive = more light | 340,000 tested, under 10 active | HeLa miR-21 FLuc reporter, luciferase, 48 h | AID 2288, 2010; active = well fitted rising curve with a large enough effect; inconclusive = small, poorly fitted or top-dose-only effect; inactive = no such curve, though single readings can be large or run the other way;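 also: % of control where 0% means no effect; miR-21 action dims this reporter so a rising signal means less miR-21 action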
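HeLa miR-21-FLuc reporter line, endogenous miR-21; 2000 cells/well in DMEM/10% FBS; compound titration up to ~40uM final, 48 h, 37 degree Celsius; luciferase detection reagent, 15 min lysis, CCD luminescence.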
Rango release inh – qHTS Assay for Inhibitors of RanGTP induced Rango (Ran-regulated importin-beta cargo) - Importin beta complex dissociation | Snurportin-1 (Homo sapiens) + GTP-binding nuclear protein Ran (Homo sapiens) + Importin … | Biochemical FRET Rango-importin beta, RanGTP-induced dissociation | Potency, µM (highest dose often 46.1 µM), for inactives: at the top dose activity change, negative = inhibition | actives 0.071% (n = 340,000); active means falling FRET ratio curve, often poorly fitted, with flat reads before Ran was added; inconclusive means other falling curves, or compound fluorescence or quenching; inactive means flat or rising ratio curve;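 also: potency is read from the fitted curve at half-maximal effect; % of control where 0% means no effect; nearly all actives have a fitted effect of over 45% in size; -100% = wells without RanGTP and RCC1; the record marks most hits as doubtful in a second field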
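FRET read at 45 min, room temperature: inhibitors block the CFP/YFP signal rise when RanGTP (0.6 uM Ran, 2 mM GTP, 0.2 uM RCC1) frees Rango (0.1 uM) from importin beta (0.25 uM). Pre-read after 5 min compound exposure flags interference.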
GLA inh pH 4.5 – qHTS Assay for Inhibitors of Human alpha-Galactosidase at pH 4.5; Alpha-galactosidase A (Homo sapiens), P06280; purified enzyme, 4-MU-alpha-Gal fluorescence, pH 4.5; activity change, negative = inhibition, % at 105 µM; 230,000 tested, under 10 active; AID 1467, 2008; inconclusive = small, poorly fitted or top-dose-only inhibition, or a rising curve; inactive = flat fitted curve, though single readings scatter; no compound was filed as active;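 also: 0% = full activity with enzyme and -100% = basal without enzyme; dose as in the result columns while the protocol names 77 µM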
Rango-impB inh – qHTS Assay for Inhibitors of Rango (Ran-regulated importin-beta cargo) - Importin beta complex formation; Rango CFP/YFP FRET sensor + importin beta, 45 min; Importin subunit beta-1 (Homo sapiens), Q14974; AID 540263, 2011; actives 0.031% (n = 340,000); Potency, µM (top dose mostly 92.2 µM), for the others: at the top dose inhibition of complex formation; active = rising FRET ratio curve, often small or poorly fitted; inconclusive = mostly compound fluorescence or quenching in the first reads; inactive = flat curves in all reads;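 also: potency is read from the fitted curve at half-maximal effect; 0% = DMSO wells and 100% = buffer wells lacking importin beta; nearly all actives have a fitted effect of over 15% in size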
Target sequence (Q14974 whole entry, looked up): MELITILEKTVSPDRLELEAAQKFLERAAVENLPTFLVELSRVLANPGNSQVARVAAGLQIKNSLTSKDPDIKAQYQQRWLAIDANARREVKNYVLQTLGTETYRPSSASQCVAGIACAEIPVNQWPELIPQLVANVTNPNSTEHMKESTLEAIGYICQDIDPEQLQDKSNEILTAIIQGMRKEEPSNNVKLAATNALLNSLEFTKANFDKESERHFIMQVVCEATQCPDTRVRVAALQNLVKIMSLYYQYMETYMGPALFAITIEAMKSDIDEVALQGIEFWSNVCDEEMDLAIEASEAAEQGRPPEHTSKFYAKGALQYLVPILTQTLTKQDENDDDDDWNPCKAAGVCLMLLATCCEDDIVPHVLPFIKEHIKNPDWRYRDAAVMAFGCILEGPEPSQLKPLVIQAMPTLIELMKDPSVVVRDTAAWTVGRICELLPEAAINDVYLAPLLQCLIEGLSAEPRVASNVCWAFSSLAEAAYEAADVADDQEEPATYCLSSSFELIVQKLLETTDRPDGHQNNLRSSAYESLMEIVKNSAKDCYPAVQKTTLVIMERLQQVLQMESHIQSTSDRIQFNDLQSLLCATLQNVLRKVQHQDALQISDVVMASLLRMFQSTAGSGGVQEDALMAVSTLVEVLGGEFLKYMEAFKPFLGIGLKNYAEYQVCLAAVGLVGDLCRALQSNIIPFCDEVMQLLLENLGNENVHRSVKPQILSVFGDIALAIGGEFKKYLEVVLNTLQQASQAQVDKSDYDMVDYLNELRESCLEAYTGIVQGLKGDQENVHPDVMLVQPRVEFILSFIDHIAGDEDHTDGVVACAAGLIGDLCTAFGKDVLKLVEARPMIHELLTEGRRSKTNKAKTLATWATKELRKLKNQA
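FRET biosensor (snurportin 1 IBB flanked by EYFP and cerulean), 50 nM, with compound 5 min, then 0.125 microM importin beta in PBS, 1 mM DTT, 0.02% Tween-20, 0.1% BSA. CFP/YFP ratio read after 45 min at room temperature; pre-read flags interference.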
Active calls of the source: *; [ ] = dose if it differs, or a comment. A portion of the library; count on the stated rates, not on these rows.

How did Cn1c(NC(=O)c2ccc(Cl)s2)cc(=O)n(C)c1=O do in these assays?
miR-21 reporter: -2.1%; Rango release inh: 11.4%; GLA inh pH 4.5: -3.6; Rango-impB inh: -1.4%

How did O=S(=O)(NC1CC1)c1ccc(Cl)cc1F do in these assays?
miR-21 reporter: -2.0%; Rango release inh: inconclusive; Rango-impB inh: -0.7%

What do the screens show for `CCCC(C)Sc1nc2c([nH]1)c(=S)n(C)c(=O)n2C` (configuration not stated)?
Rango release inh: 10.3%; Rango-impB inh: 1.1%

Results for CCCCC(CC)Cn1c(N)c(C#N)c2nc3ccccc3nc21 (configuration not stated) ?
miR-21 reporter: -0.6%; Rango release inh: inconclusive; GLA inh pH 4.5: 19.3; Rango-impB inh: inconclusive

What do the screens show for `NNC(=O)c1cc(O)c(O)c(O)c1`?
miR-21 reporter: -1.4%; Rango release inh: 37.2%; GLA inh pH 4.5: 2.1; Rango-impB inh: 0.4%

Results for Nn1c(SCC(=O)NCCN2C(=O)CSC2=O)nnc1-c1ccc(OC(F)F)cc1 ?
Rango release inh: -3.2%; Rango-impB inh: -0.7%

What do the screens show for `COc1ccc(N2C(=NC(=O)CCCc3ccccc3)SC3CS(=O)(=O)CC32)cc1` (configuration not stated)?
miR-21 reporter: -0.5%; Rango release inh: -2.0%; Rango-impB inh: 0.8%

How did C=CCC(NCc1ccccc1)c1ccco1 (configuration not stated) do in these assays?
miR-21 reporter: -5.3%; Rango release inh: 3.9%; GLA inh pH 4.5: 7.5; Rango-impB inh: 0.7%

What do the screens show for `COc1ccc(C(=O)C2CCCN(S(=O)(=O)c3ccccc3F)C2)c(C)c1` (configuration not stated)?
miR-21 reporter: -1.9%; Rango release inh: 11.8%; Rango-impB inh: -0.6%

Results for Cc1ccc(C(=O)Oc2ccc(/C=C3\C(=N)N4N=C(N5CCOCC5)SC4=NC3=O)cc2)cc1 ?
miR-21 reporter: -44.4%; Rango release inh: -16.8%; Rango-impB inh: inconclusive

Results for CC(=O)NCCCc1nc2ccccc2n1Cc1c(F)cccc1Cl ?
miR-21 reporter: -3.5%; Rango release inh: inconclusive; GLA inh pH 4.5: -9.9; Rango-impB inh: inconclusive

How did CC(CCc1ccc(O)cc1)NC(c1ccccc1)c1ccc(Cl)cc1 (configuration not stated) do in these assays?
miR-21 reporter: 17.1%; Rango release inh: -16.8%; Rango-impB inh: -1.1%

Results for O=C(NCCc1cccnc1)C1CCC(=O)N(CCc2cccc(F)c2)C1 (configuration not stated) ?
miR-21 reporter: -0.1%; Rango release inh: inconclusive; Rango-impB inh: -1.1%

Results for Cc1cccc(C(=O)NCCc2n[nH]c(=S)n2C)c1 ?
miR-21 reporter: -25.6%; Rango release inh: -4.8%; GLA inh pH 4.5: 4.0; Rango-impB inh: 0.1%

What do the screens show for `N#C/C(=C\c1ccccc1)C(=O)N1CCC(C(N)=O)CC1`?
miR-21 reporter: 1.1%; Rango release inh: 36.5%; Rango-impB inh: -0.6%

Results for Cc1ccc(NC(=O)C2CCN(S(=O)(=O)c3ccc4c(c3)OCCCO4)CC2)nc1 ?
Rango release inh: 3.3%; Rango-impB inh: -0.7%

How did Cc1cc(C(=O)Nc2ccc3ccccc3c2)c(C)o1 do in these assays?
miR-21 reporter: -29.4%; Rango release inh: -15.5%; Rango-impB inh: -0.9%

What do the screens show for `Cn1cnc([N+](=O)[O-])c1Sc1ccccc1`?
miR-21 reporter: 8.5%; Rango release inh: -8.2%; GLA inh pH 4.5: -3.2; Rango-impB inh: -9.4%

Results for O=C(CCc1nnc(CCCCc2ccccc2)o1)NCc1cccc(F)c1 ?
miR-21 reporter: -12.4%; Rango release inh: 6.4%; GLA inh pH 4.5: -2.8; Rango-impB inh: 1.7%

What do the screens show for `CC(C)(C)c1cnnn1-c1ccc([N+](=O)[O-])cc1`?
miR-21 reporter: 0.2%; Rango release inh: -1.1%; GLA inh pH 4.5: -8.6; Rango-impB inh: -2.5%

How did CC(NC(=O)c1ccc(-c2cc(C(F)(F)F)ccc2Cl)o1)c1ccccc1 (configuration not stated) do in these assays?
miR-21 reporter: 0.2%; Rango release inh: 5.4%; GLA inh pH 4.5: 4.7; Rango-impB inh: 2.9%

How did COc1ccc2c(c1)O/C(=C\c1ccccc1O)C2=O do in these assays?
Rango release inh: -14.3%; Rango-impB inh: -4.6%

What do the screens show for `COc1cccc(COC(=O)C2CCN(S(=O)(=O)c3ccc(C)cc3)CC2)c1OC`?
Rango release inh: 0.9%; Rango-impB inh: -1.8%

What do the screens show for `COc1ccc(-c2nc(N)ncc2-c2ccccc2)c(O)c1`?
miR-21 reporter: -8.4%; Rango release inh: -8.8%; Rango-impB inh: 2.4%

Results for CCN(C(=S)NC(=O)C1CCCC1)C1CCCCC1 ?
miR-21 reporter: -2.1%; Rango release inh: 14.3%; GLA inh pH 4.5: 5.4; Rango-impB inh: 2.6%

How did Cc1nn(-c2ccccc2)c(C)c1/C=N/N1CCN(c2ccccc2)CC1 do in these assays?
miR-21 reporter: -4.9%; Rango release inh: -3.7%; GLA inh pH 4.5: -9.4; Rango-impB inh: -0.3%

What do the screens show for `Cc1ccc(/C=N/N=C2/NC(=O)C(CC(=O)Nc3ccccc3)S2)o1` (configuration not stated)?
miR-21 reporter: 2.3%; Rango release inh: -9.0%; GLA inh pH 4.5: 1.4; Rango-impB inh: 1.0%

What do the screens show for `CCCCNC(=O)c1nn2cc(Br)cnc2c1Br`?
miR-21 reporter: -24.4%; Rango release inh: -2.8%; GLA inh pH 4.5: -20.8; Rango-impB inh: -0.1%

How did O=C(COC(=O)CCc1nc2ccccc2c(=O)[nH]1)Nc1ccc(N2CCOCC2)cc1 do in these assays?
miR-21 reporter: -0.7%; Rango release inh: -7.1%; GLA inh pH 4.5: -8.4; Rango-impB inh: -3.4%

What do the screens show for `COc1cccc(CNC(=O)COC(=O)CN2C(=O)NC3(CCCCC3C)C2=O)c1` (configuration not stated)?
Rango release inh: 5.0%; Rango-impB inh: 1.0%

What do the screens show for `COC(C/C=C\[C@H](O)COCc1ccccc1)OC`?
Rango release inh: 10.0%; Rango-impB inh: -4.7%

How did CCOC(=O)CC1(CC(=O)OCC)NC(=O)c2c(C)sc(C(=O)OCC)c2N1 do in these assays?
miR-21 reporter: -4.6%; Rango release inh: 1.7%; GLA inh pH 4.5: 13.9; Rango-impB inh: -4.4%

What do the screens show for `Cc1cc(C)cc(-n2cc[nH]c2=S)c1`?
miR-21 reporter: -3.3%; Rango release inh: -5.3%; GLA inh pH 4.5: 0.6; Rango-impB inh: -0.2%

How did Cc1nn(Cc2ccc(Cl)cc2)c(Cl)c1/C=N/NC(=O)c1cccnc1 do in these assays?
miR-21 reporter: 8.5%; Rango release inh: 8.0%; GLA inh pH 4.5: -6.2; Rango-impB inh: 2.2%

What do the screens show for `O=C(Nc1ccc(NC(=O)c2cccs2)cc1)c1ccco1`?
miR-21 reporter: -60.4%; Rango release inh: -10.0%; GLA inh pH 4.5: 4.7; Rango-impB inh: 3.5%

How did CCOC(=O)CNC(=O)N1CCCC(CCC(=O)NCc2ccc(F)c(F)c2)C1 (configuration not stated) do in these assays?
miR-21 reporter: -2.1%; Rango release inh: -6.9%; GLA inh pH 4.5: 3.0; Rango-impB inh: -0.8%

What do the screens show for `CCC(=O)NC(c1cccc([N+](=O)[O-])c1)c1c(OC(C)=O)ccc2ccccc12` (configuration not stated)?
miR-21 reporter: -3.2%; Rango release inh: 3.2%; GLA inh pH 4.5: 1.4; Rango-impB inh: -1.6%

How did CC(=O)Nc1cccc(C(=O)OCN2C(=O)c3ccccc3C2=O)c1 do in these assays?
miR-21 reporter: -0.9%; Rango release inh: 2.2%; Rango-impB inh: -3.9%

How did c1ccc2c(c1)ccc1nnc(SCc3ccc4c(c3)OCCO4)n12 do in these assays?
miR-21 reporter: -62.9%; Rango release inh: -20.0%; GLA inh pH 4.5: -1.1; Rango-impB inh: -5.7%

What do the screens show for `O=C(Nc1ccc(Cl)c(-c2nc3ccccc3[nH]2)c1)c1ccc2c(c1)OCO2`?
miR-21 reporter: 8.0%; Rango release inh: -3.5%; GLA inh pH 4.5: -16.4; Rango-impB inh: inconclusive

Results for COc1ccc(CCNC(=O)CNS(=O)(=O)c2ccc(F)c(Cl)c2)cc1OC ?
miR-21 reporter: 0.0%; Rango release inh: 9.1%; Rango-impB inh: 0.0%

How did COC(=O)CN(n1cnnc1)S(=O)(=O)c1ccccc1 do in these assays?
miR-21 reporter: -0.8%; Rango release inh: -0.7%; GLA inh pH 4.5: -1.3; Rango-impB inh: 2.6%

Results for O=C(O)c1ccc2c(c1)N(Cc1ccc(F)cc1)C(=O)c1ccccc1S2 ?
miR-21 reporter: -2.8%; Rango release inh: 0.9%; GLA inh pH 4.5: -6.6[21.1 µM]; Rango-impB inh: -1.4%

Results for CCOC(=O)N1CCN(C(=O)CN2C(=O)NC(c3ccccc3)(c3ccccc3)C2=O)CC1 ?
miR-21 reporter: 5.9%; Rango release inh: 0.7%; Rango-impB inh: 0.0%

Results for Cc1c(-c2ccccc2)sc(N)c1C(=O)N1CCOCC1 ?
miR-21 reporter: -3.9%; Rango release inh: -1.3%; GLA inh pH 4.5: 9.1; Rango-impB inh: -2.4%

How did CCOC(=O)CSc1n[nH]c(NS(=O)(=O)c2ccccc2C(F)(F)F)n1 do in these assays?
miR-21 reporter: -2.7%; Rango release inh: -7.3%; GLA inh pH 4.5: 3.6; Rango-impB inh: 0.1%

What do the screens show for `Cc1ccc2oc(C(=O)Nc3ccc(S(=O)(=O)Nc4onc(C)c4C)cc3)c(C)c2c1`?
miR-21 reporter: -6.0%; Rango release inh: -17.5%; Rango-impB inh: -2.9%

What do the screens show for `COc1ccc(CNC(=O)COC(=O)c2ccc(F)c(S(=O)(=O)N3CCOCC3)c2)cc1`?
Rango release inh: -8.6%; Rango-impB inh: -3.9%

What do the screens show for `CC[C@]12c3[nH]c4ccc(Cl)cc4c3CCN1C(=O)[C@@H](CC(=O)NC(C)(C)C)C[C@@H]2C(=O)N1CCN(C(=O)c2ccco2)CC1`?
Rango release inh: 2.0%; Rango-impB inh: 0.3%

What do the screens show for `Fc1ccc(-c2ccc(Nc3cccc(F)c3)nn2)cc1`?
miR-21 reporter: -57.2%; Rango release inh: 6.5%; GLA inh pH 4.5: 7.1; Rango-impB inh: 0.3%

How did CCN(CC)S(=O)(=O)c1ccc2oc(C(=O)NC3CC3)c(C)c2c1 do in these assays?
miR-21 reporter: 5.6%; Rango release inh: 26.9%; Rango-impB inh: 1.3%

What do the screens show for `COCCN(CCNC(=O)c1ccc(NC2=NC3CS(=O)(=O)CC3S2)cc1)Cc1ccco1` (configuration not stated)?
miR-21 reporter: -3.8%; Rango release inh: inconclusive; Rango-impB inh: inconclusive

How did Cn1nc(-c2ccc(OCC(N)=O)cc2)c2ccccc2c1=O do in these assays?
miR-21 reporter: -12.9%; Rango release inh: 1.0%; GLA inh pH 4.5: 6.0; Rango-impB inh: 1.3%

How did N#C/C(=C\c1ccc(F)cc1)c1nc(-c2ccco2)cs1 do in these assays?
miR-21 reporter: -34.4%; Rango release inh: -6.6%; GLA inh pH 4.5: -4.1; Rango-impB inh: 2.9%

Among those listed so far, these have a CF3 group.
How did CC(NC(=O)c1ccc(-c2cc(C(F)(F)F)ccc2Cl)o1)c1ccccc1 (configuration not stated) do in these assays?
miR-21 reporter: 0.2%; Rango release inh: 5.4%; GLA inh pH 4.5: 4.7; Rango-impB inh: 2.9%

How did CCOC(=O)CSc1n[nH]c(NS(=O)(=O)c2ccccc2C(F)(F)F)n1 do in these assays?
miR-21 reporter: -2.7%; Rango release inh: -7.3%; GLA inh pH 4.5: 3.6; Rango-impB inh: 0.1%

Screening data as filed in PubChem BioAssay.
